FEN1 inhibitor: qHTS Assay for the Inhibitors of Human Flap endonuclease 1 (FEN1) | Recombinant FEN1 flap cleavage, fluorescence, 15 min | P39748 | 0.35% of 390,000 active | Potency, µM (doses to about 114 µM), for the others: at the top dose activity change, negative = inhibition, most hits filed as inhibitors | AID 588795, 2011; note: nearly all actives have a fitted effect of over 65% in size
Target sequence (P39748 whole entry, looked up): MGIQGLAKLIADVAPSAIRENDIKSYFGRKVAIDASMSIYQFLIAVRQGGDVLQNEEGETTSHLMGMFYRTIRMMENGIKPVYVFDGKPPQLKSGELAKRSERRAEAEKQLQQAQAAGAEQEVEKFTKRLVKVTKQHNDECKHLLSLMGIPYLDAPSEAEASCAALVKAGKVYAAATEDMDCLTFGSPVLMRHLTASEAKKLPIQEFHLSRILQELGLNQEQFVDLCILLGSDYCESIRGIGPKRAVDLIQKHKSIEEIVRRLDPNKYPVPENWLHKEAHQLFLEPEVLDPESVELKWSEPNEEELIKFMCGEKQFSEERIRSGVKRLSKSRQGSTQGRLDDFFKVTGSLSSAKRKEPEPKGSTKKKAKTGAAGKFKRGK
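Concentration–response screening of FEN1 (10 nM): 15 min compound preincubation at room temperature, reaction started with 50 nM substrate and read at 0 and 15 min. Corrected, normalized data were fitted by a four-parameter Hill equation.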
TDP1 block: qHTS Assay for Inhibitors of Tyrosyl-DNA Phosphodiesterase (TDP1); Potency, µM (titrated, usually from 130 µM), without a hit: at the highest dose activity change, negative = inhibition, actives largely listed as inhibitors; 0.28% of 350,000 active; recombinant TDP1, AlphaScreen DNA substrate cleavage; note: nearly all actives have a fitted effect of over 40% in size
Target sequence (Q9NUW8 whole entry, looked up): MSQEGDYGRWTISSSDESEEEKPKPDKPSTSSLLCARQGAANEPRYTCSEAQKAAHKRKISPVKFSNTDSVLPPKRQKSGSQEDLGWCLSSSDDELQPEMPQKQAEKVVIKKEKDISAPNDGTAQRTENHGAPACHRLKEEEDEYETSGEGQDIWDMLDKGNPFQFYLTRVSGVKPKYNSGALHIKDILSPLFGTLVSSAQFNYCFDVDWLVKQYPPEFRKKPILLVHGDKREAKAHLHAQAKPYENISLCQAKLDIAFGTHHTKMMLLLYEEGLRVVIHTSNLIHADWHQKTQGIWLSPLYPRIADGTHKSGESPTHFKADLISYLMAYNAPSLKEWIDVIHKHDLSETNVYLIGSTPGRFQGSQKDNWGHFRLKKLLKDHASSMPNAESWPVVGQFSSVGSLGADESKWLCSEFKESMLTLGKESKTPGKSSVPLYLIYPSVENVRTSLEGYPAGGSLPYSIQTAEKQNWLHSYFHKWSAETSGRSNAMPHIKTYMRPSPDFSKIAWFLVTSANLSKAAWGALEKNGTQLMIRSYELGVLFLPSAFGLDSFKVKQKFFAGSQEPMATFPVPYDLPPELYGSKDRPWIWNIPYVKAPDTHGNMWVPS
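Enzyme-compound mixtures sat 15 min at room temperature, followed by a 5 min reaction with 15 nM final substrate and 10 min with AlphaScreen beads. Recombinant human Tdp1 was used at 1 nM final.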
An asterisk follows results filed as active; · = no result given; & = joins results of further samples; [ ] = dose if it differs, or a comment. Calls come from the whole dose curve; as a rule, active = well fitted inhibition curve with a large enough effect; inconclusive = small, poorly fitted or top-dose-only effect; inactive = no such curve, though single readings can be large or run the other way. % is set by controls: 0 for no effect and ±100 for the full control effect; potency is the fitted concentration of half-maximal effect.

SMILES	FEN1 inhibitor	TDP1 block
CCOc1ccc(-c2n[nH]c(C)c2-c2ccccc2OC)c(O)c1	-21%	-4%
COc1ccc(OC)c2c(C)cc(N3CCCN(C)CC3)nc12	16%	0%
CCCCC(=O)NC(=S)Nc1cccc(C(=O)O)c1	14%	6%
O=C(COC(=O)Cc1ccc(Br)cc1)NC1CCCCC1	-17%	7%
CC(C)CN(CC(C)C)C(=O)CS(=O)(=O)Cc1ccccc1	8%	-3%
COc1ccc(-c2nnn(CC(=O)N(CCO)C(C(=O)NC3CCCC3)c3ccc(F)cc3)n2)cc1 (stereo not drawn)	0%	5%
CC(Nc1cc(N2CCN(S(C)(=O)=O)CC2)ccc1[N+](=O)[O-])c1ccccc1 (stereo not drawn)	13%	11%
COc1cc(/C=N/n2c(SC)nnc(C(C)(C)C)c2=O)ccc1O	3%	5%
CS(=O)(=O)Nc1ccccc1C(=O)NC1CC2CCC1C2 (stereo not drawn)	-11%	5%
Cn1c(=O)c2c(nc(Oc3ccccc3)n2C)n(C)c1=O	-3%	3%&-3%
CCN(CC(=O)Nc1ccccc1OC)C(=O)COc1ccc2ccccc2c1	-2%	8%
O=S(=O)(CC(O)CS(=O)(=O)c1ccc(Cl)cc1)c1ccccc1 (stereo not drawn)	11%	·
N#CC1=C(N)OC2=C(CN(Cc3ccccc3)C/C2=C\c2cccnc2)C1c1cccnc1 (stereo not drawn)	5%	9%
COC(=O)c1cc(NC(=O)c2cc(C)oc2C)cc(C(=O)OC)c1	-20%	2%
CN1CCN(CCCC(=O)c2ccc(F)cc2)CC1	6%	4%

2 entries from above, bar-delimited.
compound | FEN1 inhibitor | TDP1 block
CC(Nc1cc(N2CCN(S(C)(=O)=O)CC2)ccc1[N+](=O)[O-])c1ccccc1 (stereo not drawn) | 13% | 11%
CCOc1ccc(-c2n[nH]c(C)c2-c2ccccc2OC)c(O)c1 | -21% | -4%

(list continues)
SMILES	FEN1 inhibitor	TDP1 block
O=C(COc1ccc(S(=O)(=O)N2CCCC2)cc1)NCc1cccnc1	13%	·
CN(/N=C/c1c[nH]c2ccccc12)c1cnn(-c2ccc(F)c(Cl)c2)c(=O)c1Cl	11%	2%
COc1ccc(CC2(CO)CCN(Cc3cc4ccccc4o3)CC2)cc1	6%	3%
O=C(NCCc1ccccc1)c1ccc2c(c1)OCCCO2	-8%	7%
CC1CCC(NC(=O)C2c3ccccc3C(=O)N2Cc2cccs2)CC1 (stereo not drawn)	-1%	-5%
CCCCCCOc1ccc(N2C(=O)CC(SC(=NCC)NCC)C2=O)cc1 (stereo not drawn)	8%	0%
O=C1CCCCC(=O)c2ccccc2N1	-5%	7%
COC(=O)c1ccc(C)c(-n2c(=O)n(Cc3ccccc3)c(=O)c3[nH]cnc32)c1	-1%	·
Cc1ccc(C)n1-n1cnc2sc3c(c2c1=O)CCC3	-3%	10%
Cn1nnnc1SCc1ccc([N+](=O)[O-])cc1	-3%	-3%
COc1ccc(C)cc1S(=O)(=O)N1CCC(C(=O)NCCC2=CCCCC2)CC1	1%	-1%
Cc1cc(NC(=O)CSc2cn(CCNC(=O)c3ccc(F)cc3)c3ccccc23)no1	-12%	5%
O=C(NCc1ccco1)c1ccccc1NS(=O)(=O)c1cccs1	-1%	5%
CN1CCN(c2ccc(NC(=O)c3cccs3)cc2)CC1	2%	-3%
COc1ccc(C(=O)Nc2ccc(Cl)cc2C(=O)NCCO)cc1	0%	-1%
COc1ccc(CCNC(=S)Nc2ccc(S(=O)(=O)Nc3ncccn3)cc2)cc1OC	-5%	6%
CCCn1c(N)c(C(=O)CSc2n[nH]c(-c3ccc(C)cc3)n2)c(=O)[nH]c1=O	-3%	6%
CCc1ccccc1NC(=O)C1CCN(C(=O)c2ccc([N+](=O)[O-])cc2)CC1	16%	·
COc1ccc(NC2=NCC(=O)N2c2ccccc2)c(OC)c1	-13%	5%
COc1ccc(CCC(C)NC2C3CC4CC(C3)CC2C4)cc1 (stereo not drawn)	1%	3%
CC(Sc1nnc(Cc2ccc3c(c2)OCO3)o1)C(N)=O (stereo not drawn)	-4%	1%
O=C(O)CCCNC(=O)CCCn1nnc2ccccc2c1=O	3%	·
COc1ccc(/C=C/C(=O)NC(=S)Nc2ccccc2)cc1OC	14%	·
CC(=O)c1cc(CN2CCN(C3CCN(C(C)C)CC3)C(CCO)C2)cs1 (stereo not drawn)	-6%	·
O=C(Nc1nccs1)C1CC2CCC1C2 (stereo not drawn)	-5%	7%
CC(=O)Nc1ccc(S(=O)(=O)NC2CC(=O)N(c3cccc(F)c3)C2)cc1 (stereo not drawn)	-5%	0%
CC(C(=O)Nc1ccccc1)N(C)Cc1cccs1 (stereo not drawn)	5%	·
COC(=O)c1ccc(CSc2ncn[nH]2)o1	0%	-1%
COCC(=O)Nc1cccc2ccccc12	-8%	9%
COc1cc(OC)cc(C(=O)Nc2ccc(-c3nc4ccccc4o3)cc2)c1	-6%	-2%

A draw from above in order of SMILES length, descending.
SMILES	FEN1 inhibitor	TDP1 block
CN(/N=C/c1c[nH]c2ccccc12)c1cnn(-c2ccc(F)c(Cl)c2)c(=O)c1Cl	11%	2%
CCCn1c(N)c(C(=O)CSc2n[nH]c(-c3ccc(C)cc3)n2)c(=O)[nH]c1=O	-3%	6%
N#CC1=C(N)OC2=C(CN(Cc3ccccc3)C/C2=C\c2cccnc2)C1c1cccnc1 (stereo not drawn)	5%	9%
CCc1ccccc1NC(=O)C1CCN(C(=O)c2ccc([N+](=O)[O-])cc2)CC1	16%	·
Cc1cc(NC(=O)CSc2cn(CCNC(=O)c3ccc(F)cc3)c3ccccc23)no1	-12%	5%
CC(=O)Nc1ccc(S(=O)(=O)NC2CC(=O)N(c3cccc(F)c3)C2)cc1 (stereo not drawn)	-5%	0%
COc1ccc(C)cc1S(=O)(=O)N1CCC(C(=O)NCCC2=CCCCC2)CC1	1%	-1%
COc1cc(OC)cc(C(=O)Nc2ccc(-c3nc4ccccc4o3)cc2)c1	-6%	-2%
CCCCCCOc1ccc(N2C(=O)CC(SC(=NCC)NCC)C2=O)cc1 (stereo not drawn)	8%	0%
CC1CCC(NC(=O)C2c3ccccc3C(=O)N2Cc2cccs2)CC1 (stereo not drawn)	-1%	-5%
COc1ccc(CC2(CO)CCN(Cc3cc4ccccc4o3)CC2)cc1	6%	3%
COc1ccc(C(=O)Nc2ccc(Cl)cc2C(=O)NCCO)cc1	0%	-1%
COc1ccc(CCC(C)NC2C3CC4CC(C3)CC2C4)cc1 (stereo not drawn)	1%	3%
CC(Sc1nnc(Cc2ccc3c(c2)OCO3)o1)C(N)=O (stereo not drawn)	-4%	1%
O=C(O)CCCNC(=O)CCCn1nnc2ccccc2c1=O	3%	·
O=C(NCCc1ccccc1)c1ccc2c(c1)OCCCO2	-8%	7%
Cn1nnnc1SCc1ccc([N+](=O)[O-])cc1	-3%	-3%
CN1CCN(CCCC(=O)c2ccc(F)cc2)CC1	6%	4%
COC(=O)c1ccc(CSc2ncn[nH]2)o1	0%	-1%
O=C(Nc1nccs1)C1CC2CCC1C2 (stereo not drawn)	-5%	7%
O=C1CCCCC(=O)c2ccccc2N1	-5%	7%

The list continues.
SMILES	FEN1 inhibitor	TDP1 block
COc1ccccc1-n1cc(C(=O)NCC(=O)NCc2ccc(F)cc2)c2ccccc2c1=O	0%	-3%
COc1ccc(C(C)(C)NC(=O)C2CCC(=O)N(C3CCCC3)C2)cc1OC (stereo not drawn)	-3%	5%
CCCc1nc(N2CCN(S(=O)(=O)c3ccc(Cl)cc3)CC2)c2c(C)c(C)sc2n1	9%	9%
CC1CCCC(C)N1C(=O)CSc1ncccn1 (stereo not drawn)	-3%	-1%
C/C(Cl)=C\Cn1c(Nc2ccccc2)nc2c1c(=O)n(C)c(=O)n2C	-7%	2%
ClCCN1C2=NCCCN2c2ccccc21	6%	5%
CC(c1n[nH]c(=S)n1-c1ccccc1)N1CCCCC1 (stereo not drawn)	-11%	1%
Cc1c(Cl)cnc(NC(=O)CSc2nnc(C)n2Cc2ccccc2)c1Cl	-8%	0%
O=C(Nc1ccc(Cl)cc1)c1cccc(S(=O)(=O)Nc2ccccn2)c1	0%	4%
O=C(c1ccc(F)cc1)N1CCCC(C(=O)N2CCCCC2)C1 (stereo not drawn)	2%	5%
CC(=O)c1ccc(O)c(CO)c1	-2%	5%
COc1cccc(NC(=O)Cn2c3ccccc3c3nc4n(c(=O)c32)CCS4)c1	7%	5%
COC(=O)c1ccc(CSc2cc(C)c3cccc(C)c3n2)o1	-6%	-6%
CNCC(=O)O	-10%	·
COC(=O)c1cccc(S(=O)(=O)N2CCC(n3nnc4cc(F)ccc43)CC2)c1	4%	5%
COc1ccc(C(=O)Nc2ccc3oc(Cc4ccc(Cl)cc4)nc3c2)cc1OC	-15%	5%
CCOC(=O)c1c(NC(=O)C(=O)N/N=C/c2ccccc2OC)sc2c1CCCCC2	4%	5%
CCCN1CCc2c(sc(NC(=O)c3ccc(S(=O)(=O)N(C)c4ccccc4)cc3)c2C(N)=O)C1	-22%	5%
COc1ccc(C(=O)C2CCCN(Cc3cccn3-c3ccccn3)C2)cc1F (stereo not drawn)	-7%	3%
Cc1ccc(C)c(OCc2cc(C(=O)NC(C)c3cnn(C)c3)no2)c1 (stereo not drawn)	-22%	1%
COc1ccc(N2CCN(C(=O)CSc3nnc(Cn4nnc5ccccc54)n3C)CC2)cc1	-9%	2%
CN(Cc1cccc(F)c1)C(=O)CSc1nnc(C2CC2)n1C1CC1	-1%	1%
CCn1cc(C(=O)OCC(=O)N(C)C2CCS(=O)(=O)C2)c(=O)c2ccc(C)nc21 (stereo not drawn)	-15%	3%
Cc1cc(S(=O)(=O)N2CCN=C2c2ccccc2)c(Cl)cc1Cl	-2%	0%
COc1ccc(N2CCN(C(=O)c3cccnc3)CC2)c([N+](=O)[O-])c1	-11%	-3%
COc1ccc(N=C2SCC(=O)N2Cc2ccccc2)cc1	-21%	1%
O=[N+]([O-])c1ccccc1OCCCn1cnc2ccccc21	-1%	0%
O=C(Nc1cccc(C2OCCCO2)c1)c1cccs1	0%	5%
COc1ccccc1C(=O)NNC(=S)NC(=O)c1sc2ccccc2c1Cl	-1%	9%
COc1ccc(C=NCC2OCCc3ccccc32)cc1OC (stereo not drawn)	-14%	8%
CN(C)C(=O)C(NC(=O)c1ccccc1)=C(Cl)Cl	-10%	7%
COC(=O)C(C)Sc1ccc2nnc(-c3ccc(F)cc3)n2n1 (stereo not drawn)	-4%	4%
COc1ccc(-n2c(O)c(Cc3ccccc3)c(=O)n3nc(-c4ccccc4)c(=O)cc23)cc1	-2%	2%
CC(NC(=O)/C=C/c1ccc(Br)cc1)c1ccc(Cl)cc1 (stereo not drawn)	11%	3%
O=c1cc(N2CCOCC2)cnn1-c1ccccc1	-1%	0%
CCCCN1CCC(COC(=O)c2cc(Cl)c(N)c3c2OCCO3)CC1	-19%	11%[56.1 µM]
CSCCC(NC(=O)COc1ccccc1)C(=O)OCc1ccc([N+](=O)[O-])cc1 (stereo not drawn)	-9%	·
O=C(CSc1nc2ccccc2n1S(=O)(=O)c1cccc([N+](=O)[O-])c1)NCCc1ccccc1	1%	0%
C/C(=N\NC(=O)C(N)=O)c1ccc(O)cc1O	-7%	10%
O=C(Cc1ccsc1)Nc1ccccc1F	-2%	10%
COc1ccc(NC(=O)CN2CCN(Cc3ccc4c(c3)OCO4)CC2)cc1OC	-1%	-4%
CC(C)(C)NC(=S)N/N=C/c1cccnc1	8%	·
Cc1ccc(S(=O)(=O)CNC(=S)c2cccc(Cl)c2)cc1	-4%	10%
Cc1nn(C)c(C)c1S(=O)(=O)Nc1ccc2c(c1)OCO2	-10%	6%
Cc1cc2nnc(SCC(=O)NC3CCCCC3)n2c(N)n1	12%	0%
CC(C)(C)C(=O)NC1=NCCS1	-10%	4%
CCn1nnc(NC(=O)c2ccc(C(C)(C)C)cc2)n1	4%	6%
COc1ccc(-n2nc(C(=O)NCC(=O)N3CCCCCC3)c3ccccc3c2=O)cc1Cl	8%	2%

Bioassay records (PubChem)

This is a subset; most or all hits stand in other tables.
